GLA inh pH 4.5 – alpha-galactosidase A (human) inhibition, pH 4.5; AID 1467; purified enzyme, 4-MU-alpha-Gal fluorescence, pH 4.5; 230,000 tested, under 10 active; activity change, negative = inhibition, % at 105 µM; P06280; inconclusive = small, poorly fitted or top-dose-only inhibition, or a rising curve; inactive = flat fitted curve, though single readings scatter; no compound was filed as active;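 also: 0% = full activity with enzyme and -100% = basal without enzyme; dose as in the result columns while the protocol names 77 µM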
Target sequence (P06280 whole entry, looked up): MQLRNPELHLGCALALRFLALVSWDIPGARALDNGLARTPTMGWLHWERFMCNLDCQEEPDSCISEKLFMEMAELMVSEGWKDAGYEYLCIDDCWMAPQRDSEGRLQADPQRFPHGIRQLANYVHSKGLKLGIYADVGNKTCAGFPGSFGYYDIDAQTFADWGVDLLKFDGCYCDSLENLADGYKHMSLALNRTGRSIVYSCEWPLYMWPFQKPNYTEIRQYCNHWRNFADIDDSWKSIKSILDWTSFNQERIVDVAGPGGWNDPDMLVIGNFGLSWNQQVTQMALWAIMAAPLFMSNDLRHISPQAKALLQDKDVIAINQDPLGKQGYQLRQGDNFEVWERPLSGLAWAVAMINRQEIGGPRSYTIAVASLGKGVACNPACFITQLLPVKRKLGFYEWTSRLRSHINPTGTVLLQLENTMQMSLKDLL
Rango-impB inh – inhibitors of Rango-importin beta complex formation. Rango CFP/YFP FRET sensor + importin beta, 45 min. Potency, µM (doses to about 92.2 µM), without a hit: at the highest dose inhibition of complex formation. actives 0.031% (n = 340,000). AID 540263; active = rising FRET ratio curve, often small or poorly fitted; inconclusive = mostly compound fluorescence or quenching in the first reads; inactive = flat curves in all reads;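 also: potency is read from the fitted curve at half-maximal effect; 0% = DMSO wells and 100% = buffer wells lacking importin beta; nearly all actives have a fitted effect of over 15% in size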
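Inhibition scored from the CFP 486 nm/YFP 530 nm FRET ratio 45 min after adding 0.125 microM importin beta to 50 nM Rango biosensor preincubated 5 min with compound (room temperature, PBS with DTT, Tween-20, BSA). No-importin wells as positive control.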
miR-21 reporter – raises the signal of a miR-21 reporter. Potency, µM (doses to about 38.3 µM), for the others: at the highest dose reporter change, positive = more light. 340,000 tested, under 10 active. HeLa miR-21 FLuc reporter, luciferase, 48 h; active = well fitted rising curve with a large enough effect; inconclusive = small, poorly fitted or top-dose-only effect; inactive = no such curve, though single readings can be large or run the other way;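 also: % of control where 0% means no effect; miR-21 action dims this reporter so a rising signal means less miR-21 action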
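Compounds were titrated across several concentrations (up to approximately 40 uM) and incubated 48 hours with HeLa miR-21-FLuc reporter cells (miR-21 target sequence downstream of FLuc, endogenous miR-21). Readout was firefly luciferase luminescence after lytic detection reagent.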
Rango release inh – inhibitors of RanGTP-induced Rango-importin beta complex dissociation. Biochemical FRET Rango-importin beta, RanGTP-induced dissociation. actives 0.071% (n = 340,000). O95149+P62826. Potency, µM (series often up to 46.1 µM), for inactives: at the highest dose activity change, negative = inhibition. AID 540253; active means falling FRET ratio curve, often poorly fitted, with flat reads before Ran was added; inconclusive means other falling curves, or compound fluorescence or quenching; inactive means flat or rising ratio curve;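 also: potency is read from the fitted curve at half-maximal effect; % of control where 0% means no effect; nearly all actives have a fitted effect of over 45% in size; -100% = wells without RanGTP and RCC1; the record marks most hits as doubtful in a second field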
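Quantitative HTS using a FRET biosensor: 0.1 uM Rango, 0.25 uM importin beta, 0.6 uM Ran, 2 mM GTP, 0.2 uM RCC1 final, PBS with DTT, Tween-20 and BSA. Post-read taken 45 min after Ran addition.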
Active calls of the source: *; u = inconclusive; x = not tested or not shown; & = joins results of further samples. These rows are one share of the data; the hit share may differ from the screen's.

SMILES | GLA inh pH 4.5 | Rango-impB inh | miR-21 reporter | Rango release inh
O=C1CC(N2CCOCC2)C(=O)N1c1ccc2c(c1)OCO2 (stereo not drawn) | 0 | -4.2% | -3% | -10%
CSc1ccccc1C(=O)Nc1ccc(C)cc1C | 5 | -1.1% | -10% | -8%
CC(C)C(=O)Nc1ccc2oc(=O)ccc2c1 | 1 | 4.3% | 1% | 9%
COc1ccc(N2CCN(C(=O)CSc3nnc(-c4cccnc4)n3-c3ccc(F)cc3)CC2)cc1 | -7 | 2.0% | -3% | 1%
CCOC(=O)c1c(NC(=O)C2C3C=CC(CC3)C2C(=O)O)sc(C)c1CC (stereo not drawn) | 6 | -2.8% | -3% | 1%
C=CCOCCN(CC)CC | 2 | -0.9% | -1% | 7%
COc1ccc(CNC(=O)CCNS(=O)(=O)c2ccc(NC(C)=O)cc2)cc1OC | x | -4.6% | x | -9%
COc1ccccc1NC(=O)CCN1C(=O)/C(=C\c2cc(OC)c(OC)c(OC)c2)SC1=S | x | -2.4% | 2% | -7%
COc1ccc(S(=O)(=O)NC2CC2)cc1Cl | x | -1.4% | -7% | -4%
CCOc1ccc(-c2nc(CSCC(=O)NC3CCCc4ccccc43)c(C)o2)cc1 (stereo not drawn) | -3 | u | -7% | -3%
CC1CCc2sc(C(=O)NNC(=S)NCC3CCCO3)cc2C1 (stereo not drawn) | x | 1.7% | -20% | 3%
COc1ccc(/C=N/Nc2nc3ccccc3c(=O)[nH]2)cc1 | 4 | -0.2% | -28% | 5%
Fc1ccc(-c2n[nH]c(=S)n2CC2CCCO2)cc1 (stereo not drawn) | 6 | -0.4% | -2% | 19%
O=C(c1ccc(S(=O)(=O)N2CCCCC2)cc1)N1CCN(c2ccccc2)CC1 | -1 | 1.9% | 4% | -2%
CN(C)C(=O)CN(c1ccc(F)c(Cl)c1)S(C)(=O)=O | 4 | 3.9% | -8% | 0%
CC(=O)N1CCN(CCN=CC2=C(O)CC(C)(C)CC2=O)CC1 | 0 | -0.7% | -3% | 9%
O=C(c1ccccc1)c1ccc2nc(-c3ccc(NC(=O)c4ccccc4F)cc3)[nH]c2c1 | 7 | -0.1% | -15% | -8%
O=[N+]([O-])c1cc(Cl)cc2c1nc(NCCO)c1ccccc12 | 9 | 7.6% | 4% | -6%
CCOC(=O)/C(C#N)=C/c1c(N2CCN(c3cccc(Cl)c3)CC2)nc2c(C)cccn2c1=O | x | 0.0% | -5% | -4%
CCOC(=O)CC1NCCc2c1[nH]c1ccc(OC)cc21 (stereo not drawn) | x | -1.4% | 4% | 6%
CCOc1cc(/C=N/NC(=O)c2ccc(-c3csc(Nc4ccc(C)cc4)n3)cc2)ccc1OCC(=O)O | 6 | 1.4% | -35% | -2%
COc1ccc(N(C(=O)c2ccncc2)S(=O)(=O)c2ccc3c4c(cccc24)C(=O)N3C)cc1 | -10 | u | -2% | u
Cc1cccc(NS(=O)(=O)c2nnc(NC(=O)c3ccc(C)c(C)c3)s2)c1 | x | 4.0% | -17% | 0%
CCOc1ccc(-c2csc(NC(=O)c3ccco3)n2)cc1 | x | 0.2% | -23% | -16%
COC(=O)c1ccc(/C=C/c2c(-c3ccc(OC)cc3)sc3ccccc23)cc1 | x | -2.0% | x | -23%
Remaining list, next part.
SMILES | GLA inh pH 4.5 | Rango-impB inh | miR-21 reporter | Rango release inh
C/C(=C\c1ccccc1)CN1CCC(C(=O)N2CCCC(C)C2)CC1 (stereo not drawn) | 5 | u | -8% | 8%
O=C(COc1cc(Cl)c(Cl)cc1Cl)Nc1cccc(O)c1 | 3 | -4.8% | -53% | -16%
O=[N+]([O-])c1ccc(C[n+]2ccc(Cc3ccccc3)cc2)cc1 | 2 | -1.6% | 29% | -10%
O=C(N/N=C/c1ccccn1)c1cc(-c2ccc(Cl)s2)[nH]n1 | x | -0.2% | 0% | -18%
CC(C)C(=O)Nc1ccc(C(=O)NNC(=S)NC(=O)c2ccccc2[N+](=O)[O-])cc1 | 3 | -2.2% | -5% | 0%
CC(=O)N1CCOc2cc(S(=O)(=O)NCc3ccc(F)cc3)c(C)cc21 | x | 3.2% | 1%&-12% | -4%
CCc1sc(C(=O)Nc2ccc(N3CCOCC3)cc2)cc1C | x | 3.4% | x | 12%
COc1ccc(-c2n[nH]c(=S)n2-c2cc(OC)ccc2OC)cc1 | -7 | 1.0% | 6% | -5%
COc1ccccc1NC(=O)c1ccc(NC(=O)COC(=O)CCC2CCCC2)cc1 | 6 | 2.1% | -8% | -19%
Cn1c(SCC(=O)Nc2ccc(Cl)cc2F)nnc1-c1ccco1 | x | u | -3% | -23%
O=C1COc2ccc(C(=O)CSc3nnc(Cc4cccs4)n3-c3ccc(Cl)cc3)cc2N1 | -1 | 4.7% | -1% | -11%
CC(=O)c1ccc(NC(=O)c2cccc(S(=O)(=O)N3CCN(C)CC3)c2)cc1 | x | 2.8% | -39% | 14%
COc1cccc(NC(=O)c2oc3ccccc3c2NC(=O)C(C)(C)C)c1 | -26 | -2.3% | 12% | 2%
CCC(=O)Nc1nc(C)c(-c2csc(Nc3cccc(C(=O)O)c3)n2)s1 | 10 | u | -16% | -10%
COc1cc(/C=C(\C#N)c2nc3ccccc3[nH]2)c([N+](=O)[O-])cc1OCc1ccccc1 | -29 | u | -5% | -17%
NC(=O)c1noc(C(=O)N(CC(=O)NC2CCCC2)Cc2ccc3c(c2)OCO3)c1N | 3 | 0.5% | -20% | 0%
COc1ccccc1NC(=O)c1ccc(NC(=O)COC(=O)CC(NC(=O)c2ccccc2Cl)c2ccccc2)cc1 (stereo not drawn) | -6 | -1.0% | -8% | -9%
CCCCN(CC)CCCNC(=O)CC1Oc2ccccc2NC1=O (stereo not drawn) | 3 | -3.0% | -7% | -9%
CC(=O)c1c(-c2ccccc2)c2cc(Cl)ccc2n(C)c1=O | x | 2.9% | 24% | -9%
O=C(NC1CCCCC1)C(c1ccc2ncccc2c1)N(Cc1ccc(F)cc1)C(=O)c1cccs1 (stereo not drawn) | 1 | 0.0% | -2% | 2%
CCn1c(CNS(=O)(=O)c2ccc(Br)cc2)nnc1SC | x | 0.6% | -1% | 8%
NNc1nc(-c2ccccc2)c2cc(Cl)ccc2n1 | 5 | u | -3% | -1%
CCOC(=O)N1CCC(NC(=O)C(CC(C)C)NC(=O)C2CCC(C)CC2)CC1 (stereo not drawn) | 4 | -0.7% | -1% | -9%
COc1ccc(NS(=O)(=O)c2cccc(C(=O)NCC(c3ccccc3OC)N3CCCC3)c2)cc1 (stereo not drawn) | x | 0.4% | x | 9%
COc1ccc2c(c1OC)C(=O)OC2Nc1nc(-c2ccccc2)cs1 (stereo not drawn) | 0 | 2.3% | u | -15%
Later entries
SMILES | GLA inh pH 4.5 | Rango-impB inh | miR-21 reporter | Rango release inh
O=C(NCc1ccccc1)C1CCC1 | -3 | 1.3% | -4% | 1%
O=C(Nc1ccccc1)c1cccnc1N1CCCC1 | 8 | -2.5% | -3% | 6%
O=C(Cc1ccccc1)Oc1coc(CSc2ncccn2)cc1=O | -2 | 3.3% | 5% | -7%
Cc1ccc2nc(SCC(=O)c3c(N)n(C)c(=O)n(C)c3=O)[nH]c2c1 | 5 | 0.3% | -2% | 12%
CCN1C(=O)N[C@@H](c2cccc(C(F)(F)F)c2)[C@H](C(C)=O)[C@H]1C | 7 | -1.9% | x | -17%
COc1cccc(CNC(=O)CCS(=O)(=O)c2cccc3nonc23)c1 | 11 | 7.3% | -5% | 17%
Cc1ccc(C([O-])=C(C(=S)NCc2ccccc2)[n+]2cccc(CO)c2)cc1[N+](=O)[O-] | x | u | x | 13%
O=C(NCCc1ccccc1)C1(c2ccccc2)CCCC1 | x | 3.8% | 0% | -8%
Cc1ccc(C)c(S(=O)(=O)NCc2cccnc2)c1 | -1 | 1.5% | -8% | 16%
Cc1cc(C)n(CC(=O)NNC(=O)c2cccc(C(F)(F)F)c2)n1 | x | 4.2% | 2% | 31%
NC(=O)C(=O)N/N=C/c1c(F)c(F)c(F)c(F)c1F | 7 | 1.7% | -1% | -18%
COc1ccccc1N1CCN(C(=O)C2CCCCN2S(=O)(=O)c2ccc(C)cc2)CC1 (stereo not drawn) | -5 | -6.0% | 11% | -9%
O=C1CN(Cc2nc3cc(Cl)ccc3c(=O)[nH]2)CCN1 | 8 | 2.6% | 0% | 2%
COCCn1c(N)c(Sc2ccccc2[N+](=O)[O-])c(=O)[nH]c1=O | -13 | -0.4% | 0% | -1%
COc1ccc(NS(=O)(=O)c2ccc(C)c(C(=O)O)c2)cc1 | 7 | 2.2% | 2% | -10%
CCS(=O)(=O)Nc1ccc(-c2nnc(SCC(=O)c3cccc(OC)c3)o2)cc1 | 4 | 4.8% | -3% | -21%
Cc1c(NC(=S)NC(=O)C(C)(C)C)c(=O)n(-c2ccccc2)n1C | 6 | -3.3% | -4% | 9%
O=C(Cn1nc(-c2ccccc2Cl)ccc1=O)Nc1ccc(Br)cc1 | -13 | -0.8% | -1% | 13%
CCOc1ccc(C2NC(=O)c3n[nH]c(C)c32)cc1 (stereo not drawn) | 2 | 2.0% | -17% | 25%
COc1ccc(NC(=S)N2CCC(N(C)CC3CCCO3)CC2)cc1Cl (stereo not drawn) | 1 | 0.9% | -10% | 16%
CC(=O)Nc1ccc(NC(=S)Nc2ccc(Br)cc2)cc1 | -3 | -2.2% | -2% | u
O=C(COC(=O)c1cc2c(s1)CCC2)Nc1ccc(F)cc1 | -6 | u | -6% | 14%

Source: PubChem (National Center for Advancing Translational Sciences (NCATS))
